Screening results: PubChem BioAssay, Broad Institute
Vaccinia stage – Vaccinia orthopox stage-specific inhibition. Vaccinia-infected cells, mCherry/Venus stage reporter fluorescence; stronger effect = lower value; some inactives read as strong as hits. activity change (mCherry), % (no concentration beside the values). 89,000 compounds, 0.01% hits. AID 1053133;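 active = mCherry past -33% and 40 or more points under the early reporter, replicates agreeing; inconclusive = past -33% without that gap or agreement; tested in A549 cells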;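 note: scaled between vehicle wells and reference inhibitor wells; 23 nL library stock went into each well; one replicate is shown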
Vaccinia stage Venus – recorded beside Vaccinia stage, whose call it bears; activity change (Venus), %; measured here: Venus reporter, other viral stage;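 negative = less Venus signal; first of two replicates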
* = called active by the depositor; ? = inconclusive; . = no result given. Only part of the results is shown, so the mix of outcomes need not match the whole.

SMILES	Vaccinia stage	Vaccinia stage Venus
Cc1ccc(S(=O)(=O)Nc2ccc3c(c2)C(=O)N([C@@H](C)CO)C[C@H](C)[C@@H](CN(C)S(=O)(=O)c2ccc(F)cc2)OCCCC[C@@H](C)O3)cc1	-32	-22
O=C(C[C@H]1CC[C@@H]2[C@H](COC[C@@H](O)CN2C(=O)c2ccccc2)O1)N1CCOCC1	14	16
C[C@H](CO)N1C[C@H](C)[C@@H](CN(C)C(=O)Nc2ccccc2)OCCCC[C@H](C)Oc2ccc(NS(=O)(=O)c3cn(C)cn3)cc2C1=O	19	14
C[C@H]1CN([C@@H](C)CO)C(=O)Cc2cc(NS(=O)(=O)c3cn(C)cn3)ccc2O[C@@H]1CN(C)S(=O)(=O)c1cccs1	-2	-6
CS(=O)(=O)N1[C@H](CO)[C@H](c2ccc(-c3ccccc3F)cc2)[C@@H]1C#N	2	-4
C[C@H]1CN([C@@H](C)CO)C(=O)c2cc(-c3ccccc3)cnc2O[C@@H]1CN(C)C(=O)c1cccnc1	12	10
C[C@@H](NC(=O)[C@@H]1[C@@H](CO)[C@@H]2Cn3c(ccc(-c4ccccc4)c3=O)[C@@H]2N1C)c1ccccc1	12	7
O=C(C[C@H]1C=C[C@H](NC(=O)c2ccncc2)[C@@H](CO)O1)NCC1CCCCC1	0	0
C[C@H]1CCCCO[C@H](CN(C)C)[C@@H](C)CN([C@@H](C)CO)C(=O)c2cc(NC(=O)Cc3ccccc3)ccc2O1	-7	8
CO[C@H](CN(C)C(=O)c1ccc2c(c1)OCO2)[C@H](C)CN([C@H](C)CO)S(=O)(=O)c1ccccc1	8	7
CC(C)c1cn(CC[C@@H]2CC[C@H](NC(=O)c3cccc(F)c3)[C@H](CO)O2)nn1	-3	-3
C[C@H]1CN([C@@H](C)CO)C(=O)c2ccccc2-c2ccccc2CO[C@@H]1CN(C)C(=O)[C@H]1CCCN1C	12	5
COc1ccc(CN(C)C[C@@H]2Oc3ccc(NC(=O)Nc4c(C)noc4C)cc3C(=O)N([C@H](C)CO)C[C@@H]2C)cc1	3	-2
CC(C)C(=O)Nc1ccc2c(c1)C(=O)N(C)[C@@H]1CC[C@@H](CC(=O)NCc3ccc(F)cc3)O[C@@H]1CO2	-4	2
C[C@@H]1CN([C@H](C)CO)C(=O)c2cc(NC(=O)Nc3ccc4c(c3)OCO4)ccc2O[C@H]1CN(C)C(=O)NC1CCCCC1	-4	17
O=C(C[C@H]1C=C[C@@H](NC(=O)Nc2cc(F)ccc2F)[C@H](CO)O1)Nc1ccc(-c2ccccc2)cc1	-25	-14
COCC(=O)N1C[C@H](C)[C@@H](OC)CN(C)C(=O)c2cc(NC(=O)C3CCC3)ccc2OC[C@H]1C	7	2
CCCNC(=O)C[C@H]1CC[C@@H]2[C@H](COC[C@H](O)CN2C(=O)c2cc(Cl)cc(Cl)c2)O1	7	3
CCc1cnc(N2[C@H](C#N)[C@@H](c3ccc(-c4cccc(F)c4)cc3)[C@H]2CO)s1	-3	6
C[C@@H]1CN([C@@H](C)CO)C(=O)c2cc(NC(=O)CCCN(C)C)ccc2O[C@@H](C)CCCCO[C@H]1CN(C)C(=O)CCCN(C)C	29	18
COCC(=O)N1CCC2(CC1)CN(Cc1ccccc1Cl)[C@@H](CO)c1[nH]c3cc(OC)ccc3c12	10	10
CNC(=O)C1=C[C@H](c2csc3ccccc23)C[C@H](OCc2ccc(CO)cc2)O1	-3	7
O=C(N[C@@H]1CC[C@H](CCNS(=O)(=O)c2ccc(F)cc2)O[C@@H]1CO)c1cccnc1	-1	-4
CC(C)C#Cc1cnc2c(c1)C(=O)N([C@@H](C)CO)C[C@H](C)[C@@H](CN(C)C(=O)Cc1ccccn1)O2	2	0
CS(=O)(=O)Nc1ccc2c(c1)[C@@H]1C[C@H](CC(=O)NCC(F)(F)F)O[C@H](CO)[C@@H]1O2	0	2

Individual results from the list:
Vaccinia stage with Cc1ccc(S(=O)(=O)Nc2ccc3c(c2)C(=O)N([C@@H](C)CO)C[C@H](C)[C@@H](CN(C)S(=O)(=O)c2ccc(F)cc2)OCCCC[C@@H](C)O3)cc1 = -32
Vaccinia stage with CC(C)c1cn(CC[C@@H]2CC[C@H](NC(=O)c3cccc(F)c3)[C@H](CO)O2)nn1 = -3
Vaccinia stage with COCC(=O)N1CCC2(CC1)CN(Cc1ccccc1Cl)[C@@H](CO)c1[nH]c3cc(OC)ccc3c12 = 10
Vaccinia stage with CS(=O)(=O)N1[C@H](CO)[C@H](c2ccc(-c3ccccc3F)cc2)[C@@H]1C#N = 2
Vaccinia stage Venus with C[C@H]1CN([C@@H](C)CO)C(=O)c2cc(-c3ccccc3)cnc2O[C@@H]1CN(C)C(=O)c1cccnc1 = 10
Vaccinia stage Venus with O=C(C[C@H]1CC[C@@H]2[C@H](COC[C@@H](O)CN2C(=O)c2ccccc2)O1)N1CCOCC1 = 16

Reformatted as labelled records: 2 of the compounds above.
C[C@@H](NC(=O)[C@@H]1[C@@H](CO)[C@@H]2Cn3c(ccc(-c4ccccc4)c3=O)[C@@H]2N1C)c1ccccc1
  Vaccinia stage = 12 | Vaccinia stage Venus = 7

O=C(C[C@H]1C=C[C@H](NC(=O)c2ccncc2)[C@@H](CO)O1)NCC1CCCCC1
  Vaccinia stage = 0 | Vaccinia stage Venus = 0

Next section.
SMILES	Vaccinia stage	Vaccinia stage Venus
CCCC#Cc1ccc([C@@H]2[C@H](CO)N3CCCCN(CC4CC4)C[C@@H]23)cc1	-21	-16
O=C(C1CC1)N1CC(=O)N2[C@@H](CO)[C@H](c3ccc(C#CC4CCCC4)cc3)[C@@H]2C1	-4	-5
C[C@@H]1CCCCO[C@@H](CN(C)Cc2ccc(Cl)c(Cl)c2)[C@@H](C)CN([C@H](C)CO)C(=O)c2cc(NC(=O)Nc3ccccc3)ccc2O1	6	8
Cc1ccc(S(=O)(=O)N[C@H]2CC[C@@H](CC(=O)NCCN3CCCCC3)O[C@H]2CO)cc1	11	8
Cc1noc(C)c1S(=O)(=O)Nc1ccc2c(c1)C(=O)N([C@@H](C)CO)C[C@H](C)[C@H](CN(C)C(=O)NC(C)C)O2	1	1
C[C@H]1CN([C@@H](C)CO)C(=O)c2cccc(NC(=O)Nc3ccc(C(F)(F)F)cc3)c2O[C@H]1CN(C)C(=O)Nc1ccc(F)cc1	?	.
C/C=C/c1cnc2c(c1)C(=O)N([C@@H](C)CO)C[C@@H](C)[C@@H](CN(C)C(=O)Cc1cccnc1)O2	20	6
CCCc1cn(CC[C@H]2CC[C@@H](NS(=O)(=O)c3ccc(-c4ccccc4)cc3)[C@H](CO)O2)nn1	?	.
Cc1noc(C)c1NC(=O)N(C)C[C@H]1Oc2c(NC(=O)Nc3ccc4c(c3)OCO4)cccc2C(=O)N([C@@H](C)CO)C[C@@H]1C	1	-2
COc1ccc(NC(=O)N[C@@H]2C=C[C@H](CC(=O)NC3CCC3)O[C@@H]2CO)cc1	4	9
C[C@H]1CN([C@@H](C)CO)C(=O)c2c(c3ccccc3n2C)-c2ccccc2CO[C@H]1CN(C)Cc1ccc(Oc2ccccc2)cc1	-15	-10
CC(C)OC(=O)N(C)C[C@@H]1OCc2ccccc2-c2c(n(C)c3ccccc23)C(=O)N([C@H](C)CO)C[C@H]1C	-20	-14
CC(=O)N(CC(C)C)C[C@H]1[C@@H](c2ccc(C3=CCCC3)cc2)[C@@H](CO)N1C(C)=O	8	-2
CO[C@H]1CC[C@H]2CCOc3ccc(C#N)cc3C(=O)N(C)C[C@H](OC)[C@@H](C)C(=O)N(C)C[C@H]1O2	8	0
COCC(=O)N1CC(=O)N2[C@H](CO)[C@@H](c3ccc(C#CC4CCCC4)cc3)[C@@H]2C1	4	3
COc1ccc(NC(=O)Nc2ccc3c(c2)C(=O)N([C@H](C)CO)C[C@H](C)[C@@H](CN(C)C(=O)NC2CCCCC2)O3)cc1	9	17
CN(C)CC(=O)N[C@@H]1CC[C@@H](CC(=O)O)O[C@@H]1CO	2	1
COc1cccc(-c2ccc3c(c2)O[C@@H](CN(C)C(=O)C2CCC2)[C@@H](C)CN([C@H](C)CO)S3(=O)=O)c1	2	5
O=C(NCC1CC1)[C@@H]1[C@@H](CO)[C@@H]2Cn3c(cccc3=O)[C@H]1N2CCc1ccccc1	16	13
COCC(=O)N1[C@H](CO)[C@H]2c3ccccc3N(C(=O)c3ccccc3F)C[C@H]21	7	6
CCCNC(=O)N(C)C[C@H]1Oc2cc(C#CC(C)(C)O)ccc2S(=O)(=O)N([C@@H](C)CO)C[C@@H]1C	6	-1
O=C1NC(Cc2ccc(Cl)cc2)COCc2cnnn2CCC1c1ccccc1 (centres undefined)	-4	-5
CN(C)CC(=O)N1CCCCN2[C@H](C1)[C@@H](c1ccc(/C=C/c3ccccc3)cc1)[C@@H]2CO	?	.
CNC[C@@H]1Oc2ccc(NS(=O)(=O)c3ccc(OC)cc3)cc2CC(=O)N([C@H](C)CO)C[C@H]1C	-5	4
O=C(Nc1ccc(F)cc1)N1C[C@H]2[C@@H](c3ccccc31)[C@H](CO)N2Cc1ccccc1	-20	-2

(more compounds)
SMILES	Vaccinia stage	Vaccinia stage Venus
C[C@@H]1CN([C@H](C)CO)C(=O)Cc2cc(NC(=O)c3ccncc3)ccc2O[C@@H]1CN(C)Cc1ccncc1	15	14
C[C@@H]1CN([C@@H](C)CO)C(=O)Cc2cc(NC(=O)CCN3CCOCC3)ccc2O[C@H]1CN(C)Cc1ccc(C(F)(F)F)cc1	-33	-25
CCC(=O)N(C)C[C@@H]1Oc2ncc(C#Cc3ccncc3)cc2C(=O)N([C@@H](C)CO)C[C@H]1C	3	14
CC(=O)N1[C@@H](CO)[C@@H](c2ccccc2)[C@@H]1CN(C)S(=O)(=O)c1ccccc1	5	8
C[C@@H]1CN([C@@H](C)CO)C(=O)c2cc(N(C)C)ccc2O[C@@H](C)CCCCO[C@H]1CN(C)C(=O)C1CCCCC1	4	2
C[C@@H]1CCCCO[C@H](CN(C)C(=O)Nc2ccc3c(c2)OCO3)[C@H](C)CN([C@@H](C)CO)C(=O)c2cc(NC(=O)Nc3ccc(F)cc3)ccc2O1	9	1
C[C@@H]1CN([C@@H](C)CO)C(=O)Cc2cc(NS(=O)(=O)c3cn(C)cn3)ccc2O[C@@H]1CN(C)Cc1ccc(Oc2ccccc2)cc1	-19	-6
COc1ccc2c3c([nH]c2c1)[C@@H](CO)NCC31CCN(C(=O)Nc2ccc(F)cc2)CC1	-3	5
Cc1cccc(S(=O)(=O)N[C@@H]2CC[C@H](CCNC(=O)c3cnccn3)O[C@@H]2CO)c1	3	4
CN1CCN(C(=O)C[C@H]2C[C@@H]3c4cc(NC(=O)c5ccc6c(c5)OCO6)ccc4O[C@@H]3[C@@H](CO)O2)CC1	-8	-9
CO[C@H]1CN(C)C(=O)c2cc(NC(=O)C3CC3)ccc2OC[C@H](C)N(Cc2cc(F)ccc2F)C[C@H]1C	?	.
C[C@H]1CN([C@@H](C)CO)C(=O)c2cc(NC(=O)Cn3cnnn3)ccc2O[C@H]1CN(C)S(=O)(=O)c1ccccc1	5	3
C[C@@H]1CCCCO[C@H](CN(C)C(=O)CCCN(C)C)[C@H](C)CN([C@@H](C)CO)C(=O)c2cc(NS(=O)(=O)c3cn(C)cn3)ccc2O1	16	10
CO[C@H]1CN(C)C(=O)c2cc(NC(=O)C3CCCCC3)ccc2OC[C@@H](C)N(Cc2nccs2)C[C@H]1C	-3	-3
CO[C@@H]1CN(C)C(=O)c2ccc(NS(=O)(=O)c3cccc(F)c3)cc2OC[C@@H](C)NC[C@H]1C	15	10
COc1ccc(NC(=O)N(C)C[C@H]2OCCCC[C@H](C)Oc3ccc(NS(=O)(=O)c4cccs4)cc3C(=O)N([C@H](C)CO)C[C@@H]2C)cc1	-3	0
CN1CCN(C(=O)C[C@@H]2CC[C@H]3[C@@H](COC[C@H](O)CN3S(=O)(=O)c3cccc(Cl)c3)O2)CC1	14	8
Cn1cnc(CCNC(=O)C[C@@H]2CC[C@H]3[C@@H](COC[C@@H](O)CN3C(=O)C3CC3)O2)c1	-6	2
C[C@H](CO)N1C[C@H](C)[C@H](CN(C)CC2CC2)Oc2ncc(-c3ccc(F)cc3)cc2C1=O	16	5
CCCC#Cc1cnc2c(c1)C(=O)N([C@@H](C)CO)C[C@@H](C)[C@H](CN(C)C(=O)Nc1cc(F)ccc1F)O2	2	0
COC(=O)C[C@H]1C[C@@H]2c3cc(NC(=O)CN(C)C)ccc3O[C@@H]2[C@H](CO)O1	-8	-5
C[C@@H]1CN([C@@H](C)CO)C(=O)c2cc(-c3ccccc3F)cnc2O[C@H]1CN(C)Cc1cccc(C(=O)O)c1	11	-3
C[C@H]1CN([C@@H](C)CO)C(=O)c2cc(NC(=O)CCC(F)(F)F)ccc2O[C@@H]1CN(C)C	-2	-6
O=C(C[C@@H]1CC[C@@H]2[C@H](COC[C@H](O)CN2Cc2nccs2)O1)NCc1ccc(Oc2ccccc2)cc1	?	.
C[C@@H]1CCCCO[C@@H](CN(C)Cc2ccc(C(F)(F)F)cc2)[C@@H](C)CN([C@@H](C)CO)C(=O)c2cc(NC(=O)Nc3ccc4c(c3)OCO4)ccc2O1	-2	6
C[C@@H]1CN([C@@H](C)CO)C(=O)c2cc(NS(=O)(=O)c3cn(C)cn3)ccc2O[C@@H]1CN(C)Cc1ccc(Cl)c(Cl)c1	-2	-1

5 structures out of the list, ordered by molar mass, high to low.
SMILES	Vaccinia stage	Vaccinia stage Venus
C[C@@H]1CN([C@@H](C)CO)C(=O)Cc2cc(NC(=O)CCN3CCOCC3)ccc2O[C@H]1CN(C)Cc1ccc(C(F)(F)F)cc1	-33	-25
C[C@H]1CCCCO[C@H](CN(C)C)[C@@H](C)CN([C@@H](C)CO)C(=O)c2cc(NC(=O)Cc3ccccc3)ccc2O1	-7	8
CCCc1cn(CC[C@H]2CC[C@@H](NS(=O)(=O)c3ccc(-c4ccccc4)cc3)[C@H](CO)O2)nn1	?	.
O=C1NC(Cc2ccc(Cl)cc2)COCc2cnnn2CCC1c1ccccc1 (centres undefined)	-4	-5
CCc1cnc(N2[C@H](C#N)[C@@H](c3ccc(-c4cccc(F)c4)cc3)[C@H]2CO)s1	-3	6
